YopH PTP inh: blocks Yersinia enterocolitica YopH tyrosine phosphatase; inhibition, %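 (about 10 µM by stock and volumes)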; AID 898; actives 0.16% (n = 140,000); fluorescence Ex485/Em525;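 active = inhibition of 50% or more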;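 note: controls were vehicle for no effect and minimum signal wells for full effect; inactives centre near -20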
Mtb H37Rv: M. tuberculosis H37Rv growth inhibitors, H37Rv strain (AID 1626) | M. tuberculosis H37Rv growth inhibition; higher % means a stronger effect | inhibition, % at 10 µM; hits with a dose series show IC50 in µM | actives 0.95% (n = 220,000);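 active = confirmed in a dose series; inconclusive = inhibition above 80% but not taken into the dose series; inactive = below 80% or under 30% at every dose of the series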;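 note: bacteria incubated seven days before Alamar blue readout; 0% = bacteria only wells and 100% = bacteria with antibiotic wells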
Mtb betalactam: beta-lactam sensitization of Mtb H37Rv; M. tuberculosis H37Rv growth with meropenem, percent inhibition; hits of this screen are not shown here; AID 434955; actives 0.27% (n = 330,000); inhibition, % at 25 µM;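 active = about 74% or more and at least 40 points above the plate without the antibiotic, then above 30% in a dose series; inconclusive = first-round hits that could not be retested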;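 note: growth measured after seven days incubation then overnight dye step; 0% = bacteria only wells and 100% = bacteria with antibiotic; twin plates without the antibiotic show which effects depend on it; some results filed as inactive read as strong as hits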
RecA splice inh: inhibitors of M. tuberculosis RecA intein splicing | cell-free RecA intein splicing, fluorescence | AID 2221 | actives 0.75% (n = 290,000) | inhibition, %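 (about 9 µM by stock and volumes)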; in the data active = inhibition above about 30%; inconclusive = no clear call, values can overlap the other calls;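 note: 0% = vehicle wells and 100% = reference inhibitor control wells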
Target sequence (P9WHJ3 whole entry, looked up, canonical isoform): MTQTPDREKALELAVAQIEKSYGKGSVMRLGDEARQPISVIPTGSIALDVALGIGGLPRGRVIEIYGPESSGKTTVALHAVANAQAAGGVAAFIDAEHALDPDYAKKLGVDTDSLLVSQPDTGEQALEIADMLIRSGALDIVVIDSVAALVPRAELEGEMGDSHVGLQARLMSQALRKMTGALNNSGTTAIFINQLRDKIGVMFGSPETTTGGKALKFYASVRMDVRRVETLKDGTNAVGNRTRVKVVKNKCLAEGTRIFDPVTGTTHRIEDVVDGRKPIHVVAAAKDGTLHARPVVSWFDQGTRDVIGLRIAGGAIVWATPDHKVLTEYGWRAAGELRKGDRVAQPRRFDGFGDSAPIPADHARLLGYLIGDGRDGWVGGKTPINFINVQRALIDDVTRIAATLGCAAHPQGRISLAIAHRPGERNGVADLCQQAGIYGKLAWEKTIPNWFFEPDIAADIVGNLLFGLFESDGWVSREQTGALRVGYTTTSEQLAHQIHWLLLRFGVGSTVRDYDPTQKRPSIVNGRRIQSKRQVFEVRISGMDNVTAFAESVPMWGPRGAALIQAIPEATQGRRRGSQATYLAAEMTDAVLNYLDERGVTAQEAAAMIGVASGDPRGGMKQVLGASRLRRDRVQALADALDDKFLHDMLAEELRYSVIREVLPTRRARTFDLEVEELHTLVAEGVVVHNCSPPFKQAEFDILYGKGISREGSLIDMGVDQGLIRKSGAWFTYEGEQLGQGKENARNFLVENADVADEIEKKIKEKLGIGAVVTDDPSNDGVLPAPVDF
Arbovirus inh: blocks arbovirus infection. inhibition, % at 10 µM. actives 0.37% (n = 200,000). AID 1251. arbovirus infection cell-based antiviral screen;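 active = inhibition from about 30%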;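 note: bluetongue infection of BSR cells; cell survival read as ATP light after 72 h; 0% = infected wells without compound and 100% = uninfected wells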
Arbovirus inh repeat: recorded beside Arbovirus inh, whose call it bears; inhibition, %; measured here: 10K subset replicate screen; many hits read low in the repeat;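 first of two repeat runs on a subset; 0% = infected and 100% = uninfected wells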
* marks the source's active call; other numbers are inactive results. This is a subset; rates above refer to the full screens.

The first 5 compounds as a preview:
`CCn1c(SCC(=O)OCc2ccccc2)nc2c1c(=O)n(C)c(=O)n2C` gave YopH PTP inh -34, Mtb H37Rv -5%, Mtb betalactam -3, RecA splice inh 0.0 and Arbovirus inh 2.
`O/C(=C\c1nc2ccccc2[nH]1)c1cccs1` gave Mtb betalactam 4 and RecA splice inh -0.7.
Screening Cc1cc(N2CCC(C)CC2)nc(SCC(=O)c2ccccc2)n1 returned YopH PTP inh 3, Mtb H37Rv -7%, Mtb betalactam 18, RecA splice inh 13 and Arbovirus inh -5.
For Cc1ccsc1C(=O)C1CCCN(Cc2cccc(-n3cccn3)c2)C1 (stereo not drawn) the results were Mtb H37Rv 8%, Mtb betalactam -9, RecA splice inh -8.4 and Arbovirus inh 7.
For O=C(c1ccc(S(=O)(=O)N2CCOCC2)cc1)N1CCN=C1SCc1cccnc1 the results were YopH PTP inh 10, Mtb H37Rv 5%, Mtb betalactam -1, RecA splice inh -1.2 and Arbovirus inh 1.

Main list, previewed entries included:
`CCn1c(SCC(=O)OCc2ccccc2)nc2c1c(=O)n(C)c(=O)n2C` gave YopH PTP inh -34, Mtb H37Rv -5%, Mtb betalactam -3, RecA splice inh 0.0 and Arbovirus inh 2.
`O/C(=C\c1nc2ccccc2[nH]1)c1cccs1` gave Mtb betalactam 4 and RecA splice inh -0.7.
Screening Cc1cc(N2CCC(C)CC2)nc(SCC(=O)c2ccccc2)n1 returned YopH PTP inh 3, Mtb H37Rv -7%, Mtb betalactam 18, RecA splice inh 13 and Arbovirus inh -5.
For Cc1ccsc1C(=O)C1CCCN(Cc2cccc(-n3cccn3)c2)C1 (stereo not drawn) the results were Mtb H37Rv 8%, Mtb betalactam -9, RecA splice inh -8.4 and Arbovirus inh 7.
For O=C(c1ccc(S(=O)(=O)N2CCOCC2)cc1)N1CCN=C1SCc1cccnc1 the results were YopH PTP inh 10, Mtb H37Rv 5%, Mtb betalactam -1, RecA splice inh -1.2 and Arbovirus inh 1.
Screening O=C(O)C1CCN(C(=O)CCc2ccccc2)CC1 returned Mtb H37Rv -10%, Mtb betalactam 0 and RecA splice inh 0.8.
Screening CCNc1nc(NCC)nc(N/N=C/c2ccc(Br)cc2)n1 returned Mtb H37Rv 2%, Mtb betalactam 2, RecA splice inh 0.2 and Arbovirus inh -6.
For CCCCN(C)CCCNC(=O)/C=C1\Sc2ccccc2NC1=O the results were Mtb betalactam -9 and Arbovirus inh 3.
Cc1cc(C)c2c(=O)n(CC(=O)Nc3ccc(Br)c(C)c3)sc2n1 was read as Mtb H37Rv inconclusive and Mtb betalactam 33.
`O=C(OCC(=O)c1c[nH]c2ccccc12)c1cccc(S(=O)(=O)N2CCCCCC2)c1` gave YopH PTP inh -36, Mtb H37Rv -13%, Mtb betalactam -2, RecA splice inh -2.0 and Arbovirus inh -21.
COc1ccccc1CNC(=O)CCS(=O)(=O)c1cccs1 was read as YopH PTP inh -39, Mtb H37Rv -7%, Mtb betalactam 3, RecA splice inh 0.9, Arbovirus inh 1 and Arbovirus inh repeat 6.
`COc1ccc(OC)c(/C=C2\N=C(c3ccccc3)OC2=O)c1` gave Mtb betalactam 61 and RecA splice inh -15.
For O=C(NC(=S)Nc1ccc(NC(=O)c2cccs2)cc1)c1ccc([N+](=O)[O-])cc1 the results were YopH PTP inh -23, Mtb H37Rv inconclusive, Mtb betalactam 2, RecA splice inh 0.4 and Arbovirus inh 1.
For Cc1ccc(C(=O)N2CCN(c3ccc(NC(=O)c4cccnc4)cc3)CC2)cc1 the results were YopH PTP inh -37, Mtb H37Rv -10%, Mtb betalactam -3, RecA splice inh -6.9 and Arbovirus inh 2.
For Cc1cc(C)cc(NC(=O)C(=S)NCc2ccccc2)c1 the results were Mtb H37Rv 6%, Mtb betalactam 4, RecA splice inh 3.5 and Arbovirus inh -2.
Screening Cc1c(O)c(CN2CCCC2)cc2c1oc(=O)c1ccccc12 returned YopH PTP inh 3, Mtb H37Rv -8%, Mtb betalactam 32, RecA splice inh -2.3 and Arbovirus inh 17.
O=C(CN1CCSCC1)N/N=C/c1ccc(F)c(F)c1 was read as YopH PTP inh -5, Mtb H37Rv -1%, Mtb betalactam -2, RecA splice inh 4.0 and Arbovirus inh 3.
`O=C(Nc1ccccc1-c1nnn(CC(=O)N2CCCc3ccccc32)n1)c1cccc(Cl)c1` gave YopH PTP inh -18, Mtb H37Rv 11%, Mtb betalactam -4 and RecA splice inh 2.5.
For COc1ccc([N+](=O)[O-])cc1N(CC(O)CN1CCCC1)S(=O)(=O)c1ccc(C)cc1 (stereo not drawn) the results were Mtb H37Rv -1%, Mtb betalactam -2 and Arbovirus inh -9.
`Cc1nc(SCC(=O)NC(=O)NCCC(C)C)c2c(-c3cccs3)csc2n1` gave YopH PTP inh -30, Mtb H37Rv -3%, Mtb betalactam 2, RecA splice inh 3.9 and Arbovirus inh -5.
For COc1cc2ccccc2cc1C(=O)Nc1ccc(CN2CCOCC2)cc1 the results were Mtb betalactam 7 and RecA splice inh 4.2.
O=C(/C=C\c1ccc2c(c1)OCO2)Nc1c2c(nn1-c1ccc(Cl)cc1)CSC2 was read as YopH PTP inh -13, Mtb betalactam 6, RecA splice inh -0.6 and Arbovirus inh -5.
For Cn1cc(CCC(=O)NC2CC2)c2ccccc21 the results were Mtb betalactam 2 and RecA splice inh -0.4.
`O=C(O)CCCN1C(=O)C2C3CCC(O3)C2C1=O` (stereo not drawn) gave YopH PTP inh -43, Mtb H37Rv 3%, Mtb betalactam -8, RecA splice inh -0.8 and Arbovirus inh -1.
Screening CCOc1cccc2c1OC1(CCCCC1)N1N=C(c3cccnc3)CC21 (stereo not drawn) returned YopH PTP inh -19, Mtb H37Rv 6%, Mtb betalactam 6, RecA splice inh -1.9 and Arbovirus inh -3.
For O=C(c1ccncc1)N(c1ccc2oc3c(c2c1)CCCC3)S(=O)(=O)c1cccc([N+](=O)[O-])c1 the results were YopH PTP inh -14, Mtb H37Rv 6%, Mtb betalactam 8, RecA splice inh 1.9 and Arbovirus inh -7.
O=C(C1CCN(S(=O)(=O)c2ccccc2)CC1)N1CCOCC1 was read as YopH PTP inh -18, Mtb H37Rv -13%, Mtb betalactam -4, RecA splice inh -2.0 and Arbovirus inh 4.
`CCN(CC)CCSc1nc(O)c(-c2ccccc2)c(=O)n1-c1ccccc1` gave Mtb H37Rv -5%, Mtb betalactam -7, RecA splice inh -0.3 and Arbovirus inh 3.
O=C(Cc1ccccc1)Nc1cc(C(=O)c2ccccc2)ccc1N1CCOCC1 was read as YopH PTP inh -3, Mtb H37Rv -1%, Mtb betalactam -4, RecA splice inh 3.1 and Arbovirus inh 5.
For CC(=O)Nc1ccc(S(=O)(=O)N2CCC(C(=O)NCCC(=O)NCc3ccncc3)CC2)cc1 the results were Mtb betalactam 1 and RecA splice inh -2.1.
For CCc1sc(C(=O)Nc2cccnc2)cc1Br the results were Mtb betalactam 0 and RecA splice inh 2.2.
For COc1ccc(-c2csc3ncnc(N4CCN(S(=O)(=O)c5cccc(C(F)(F)F)c5)CC4)c23)cc1 the results were Mtb betalactam -5 and RecA splice inh -1.9.
Screening CCOC(=O)N1CCN(C(=O)CN(c2ccc(OC)c(OC)c2)S(C)(=O)=O)CC1 returned YopH PTP inh -18, Mtb H37Rv 2%, Mtb betalactam -3, RecA splice inh -2.1 and Arbovirus inh 1.
Screening O=C(CCN1CCN(c2ccccc2F)CC1)Nc1ccccc1Cl returned Mtb betalactam 5 and RecA splice inh 2.7.
`COc1ccccc1OCCSc1nc2ccccc2n1CC(N)=O` gave Mtb betalactam 6 and RecA splice inh 1.2.
CC(=O)c1ccc(NC(=S)NC(=O)/C=C/c2ccccc2)cc1 was read as Mtb betalactam 4 and RecA splice inh -2.4.
`O=C(Nc1nccs1)c1cnccn1` gave YopH PTP inh -32, Mtb H37Rv -2%, Mtb betalactam -15, RecA splice inh 1.0 and Arbovirus inh -2.
O=C(Nc1nnc(-c2ccco2)o1)c1ccc(Cl)s1 was read as Mtb betalactam 93 and RecA splice inh 3.8.
`O=C(Nc1ccccc1)Nc1nnc(Cc2ccccc2F)s1` gave Mtb betalactam -2 and RecA splice inh -1.6.
`CC(C)c1ccc(NC(=O)C2CCCN(S(=O)(=O)c3cccnc3)C2)cc1` (stereo not drawn) gave Mtb betalactam -9 and RecA splice inh 1.6.
Screening Cn1c(=O)c(-c2ccccc2)nn2c3ccccc3nc12 returned YopH PTP inh -7, Mtb H37Rv -7%, Mtb betalactam 56, RecA splice inh -0.9 and Arbovirus inh 12.
Screening CN(C)CCCN(Cc1ccccc1)C(=S)Nc1cccc(C(F)(F)F)c1 returned YopH PTP inh -6, Mtb H37Rv 10%, Mtb betalactam 4, RecA splice inh -2.3 and Arbovirus inh -26.
`COc1ccc(NC(=O)CSc2nnc(-c3ccccc3F)n2C2CC2)cc1S(N)(=O)=O` gave Mtb H37Rv 1%, Mtb betalactam -4, RecA splice inh 1.2 and Arbovirus inh 4.
COc1ccc2[nH]c3c(=O)n(CCCC(=O)NC4CCC(C)CC4)c(=S)[nH]c3c2c1 (stereo not drawn) was read as Mtb betalactam 5 and RecA splice inh 2.4.
`COc1ccc(C(CNC(=O)Cc2ccccc2Cl)N2CCCCC2)cc1` (stereo not drawn) gave Mtb betalactam 1 and RecA splice inh 1.7.
Screening O=C(NCc1ccco1)C1CCCN1C(=O)Nc1ccccc1 (stereo not drawn) returned Mtb H37Rv 3%, Mtb betalactam -9, RecA splice inh 8.7 and Arbovirus inh 11.
`COc1ccccc1N1C(=O)c2ccccc2NC1C(OC)OC` (stereo not drawn) gave YopH PTP inh 3, Mtb H37Rv -9%, Mtb betalactam -17, RecA splice inh -7.4 and Arbovirus inh -2.
O=C(O)CCN1C(=O)S/C(=C\c2cccnc2)C1=O was read as Mtb H37Rv 6%, Mtb betalactam -4 and RecA splice inh -3.7.
Screening Cc1nc(-c2cccs2)sc1C(=O)O returned Mtb H37Rv 13%, Mtb betalactam 4 and RecA splice inh -9.2.
`O=C1NC(=O)N(c2ccccc2F)C(=O)/C1=C/c1ccc(Oc2ccc([N+](=O)[O-])cn2)cc1` gave Mtb H37Rv 2%, Mtb betalactam 9, RecA splice inh 1.0 and Arbovirus inh 0.
For O=C(CC(=O)NN=C1CCCC1)NCCc1ccccc1 the results were YopH PTP inh 11, Mtb H37Rv -3%, Mtb betalactam -3, RecA splice inh 0.2 and Arbovirus inh 1.
Screening O=C(CNc1cc(S(=O)(=O)N2CCOCC2)ccc1NCC1CCCO1)Nc1cccc(F)c1 (stereo not drawn) returned Mtb betalactam -3 and RecA splice inh -8.4.
For Cc1ccc(OCC(=O)N2CCN(c3nnc(-c4ccc(C)cc4)c4ccccc34)CC2)cc1 the results were YopH PTP inh -8, Mtb H37Rv 5%, Mtb betalactam 100, RecA splice inh 25 and Arbovirus inh -21.
For O=C(NC(=S)Nc1ccc2oc(-c3cccnc3)nc2c1)c1cccc(Cl)c1 the results were YopH PTP inh -9, Mtb betalactam 67, RecA splice inh 0.4 and Arbovirus inh 15.
`COc1ccc(NC(=O)C2CCCN(c3ncccn3)C2)cc1` (stereo not drawn) gave Mtb betalactam -10 and RecA splice inh 0.5.
For Cc1ccc2c(c1)c1c(n2CC(O)CNC2CCCCC2)CCCC1 (stereo not drawn) the results were Mtb H37Rv 6.8µM*, Mtb betalactam 4, RecA splice inh 4.8 and Arbovirus inh -32.
For CCc1c(C(=O)NCCc2cccc(C)c2)[nH]c(C)c1C(C)=O the results were Mtb betalactam 2 and RecA splice inh 1.6.
Screening CC(C)(C)c1ccc(C(=O)CSc2nc3ccccc3c(=O)[nH]2)cc1 returned YopH PTP inh 16, Mtb H37Rv 9%, Mtb betalactam 2, RecA splice inh 0.2 and Arbovirus inh 3.
`CCOc1ccc(CN(C)C(C)C(=O)NCCc2ccc(F)cc2)cc1` (stereo not drawn) gave Mtb betalactam 2 and RecA splice inh -1.1.
COC(=O)[C@H](CC(C)C)NC(=O)N1CCCCC1 was read as Mtb H37Rv -5%, Mtb betalactam -4 and RecA splice inh 0.3.
`O=C(Nc1cccc(Cl)c1)OCc1ccccn1` gave YopH PTP inh -15, Mtb H37Rv 3%, Mtb betalactam 9, RecA splice inh -0.3 and Arbovirus inh -2.
CCOc1ccc(S(=O)(=O)N2CCN(c3ccccn3)CC2)cc1 was read as Mtb betalactam 0 and RecA splice inh 2.0.
For O=C(Cc1ccc(O)cc1)N/N=C/c1cccnc1 the results were Mtb betalactam -7 and RecA splice inh -0.3.
`O=C(COc1ccccc1[N+](=O)[O-])N/N=C/c1ccc(OC(=O)c2ccco2)cc1` gave YopH PTP inh -18, Mtb H37Rv -3%, Mtb betalactam -4, RecA splice inh -0.4 and Arbovirus inh -7.
For COc1cc2c(=O)n(Cc3ccccc3)c(=O)n(CC(=O)NCCc3ccccc3)c2cc1OC the results were YopH PTP inh -3, Mtb H37Rv -8%, Mtb betalactam 1, RecA splice inh -1.3 and Arbovirus inh -15.

Compound activity from PubChem BioAssay.
